GLA inh pH 4.5: blocks human alpha-galactosidase A at pH 4.5; purified enzyme, 4-MU-alpha-Gal fluorescence, pH 4.5; 230,000 tested, under 10 active; P06280; AID 1467; activity change, negative = inhibition, % at 105 µM; inconclusive = small, poorly fitted or top-dose-only inhibition, or a rising curve; inactive = flat fitted curve, though single readings scatter; no compound was filed as active;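 further: 0% = full activity with enzyme and -100% = basal without enzyme; dose as in the result columns while the protocol names 77 µM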
Target sequence (P06280 whole entry, looked up): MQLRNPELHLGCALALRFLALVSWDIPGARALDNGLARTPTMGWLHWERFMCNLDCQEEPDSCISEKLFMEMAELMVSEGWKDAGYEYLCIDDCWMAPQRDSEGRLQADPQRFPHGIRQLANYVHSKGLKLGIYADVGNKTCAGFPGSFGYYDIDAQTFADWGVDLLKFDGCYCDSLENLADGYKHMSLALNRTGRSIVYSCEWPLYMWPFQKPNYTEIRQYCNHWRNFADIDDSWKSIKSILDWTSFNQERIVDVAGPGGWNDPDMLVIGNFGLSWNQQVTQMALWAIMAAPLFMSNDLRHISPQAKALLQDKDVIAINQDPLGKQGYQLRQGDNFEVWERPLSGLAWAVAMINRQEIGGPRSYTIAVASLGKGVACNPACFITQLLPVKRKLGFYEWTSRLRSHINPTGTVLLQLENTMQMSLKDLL
Rango dissoc inh: prevents RanGTP from dissociating the Rango-importin beta complex; Potency, µM (titrated, usually from 46.1 µM), inactives show at the highest dose activity change, negative = inhibition; Biochemical FRET Rango-importin beta, RanGTP-induced dissociation; O95149+P62826; 340,000 compounds, 0.071% hits; active means falling FRET ratio curve, often poorly fitted, with flat reads before Ran was added; inconclusive means other falling curves, or compound fluorescence or quenching; inactive means flat or rising ratio curve;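 further: potency means the concentration at half of the fitted maximal effect; % of control where 0% means no effect; nearly all actives have a fitted effect of over 45% in size; -100% = wells without RanGTP and RCC1; the record marks most hits as doubtful in a second field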
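Recombinant Rango FRET biosensor (EYFP–snurportin 1 IBB–cerulean CFP10) at 0.1 uM premixed with 0.25 uM importin beta in PBS, 1 mM DTT, 0.02% Tween-20, 0.1% BSA. Compound added 5 min; RanGTP-RCC1 (0.6 uM Ran, 2 mM GTP, 0.2 uM RCC1) then triggers release, read at 45 min.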
Rango-impB inh: prevents formation of the Rango-importin beta complex; Q14974; Rango CFP/YFP FRET sensor + importin beta, 45 min; Potency, µM (highest dose often 92.2 µM), for inactives: at the top dose inhibition of complex formation; 340,000 compounds, 0.031% hits; active = rising FRET ratio curve, often small or poorly fitted; inconclusive = mostly compound fluorescence or quenching in the first reads; inactive = flat curves in all reads;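 further: potency means the concentration at half of the fitted maximal effect; 0% = DMSO wells and 100% = buffer wells lacking importin beta; nearly all actives have a fitted effect of over 15% in size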
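FRET biosensor (snurportin 1 IBB flanked by EYFP and cerulean), 50 nM, with compound 5 min, then 0.125 microM importin beta in PBS, 1 mM DTT, 0.02% Tween-20, 0.1% BSA. CFP/YFP ratio read after 45 min at room temperature; pre-read flags interference.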
miR-21 FLuc: raises the signal of a miR-21 reporter. HeLa miR-21 FLuc reporter, luciferase, 48 h. Potency, µM (doses to about 38.3 µM), for inactives: top-dose reporter change, positive = more light. 340,000 tested, under 10 active. AID 2288; active = well fitted rising curve with a large enough effect; inconclusive = small, poorly fitted or top-dose-only effect; inactive = no such curve, though single readings can be large or run the other way;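 further: % of control where 0% means no effect; miR-21 action dims this reporter so a rising signal means less miR-21 action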
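Compounds were titrated across several concentrations (up to approximately 40 uM) and incubated 48 hours with HeLa miR-21-FLuc reporter cells (miR-21 target sequence downstream of FLuc, endogenous miR-21). Readout was firefly luciferase luminescence after lytic detection reagent.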
Starred values were filed as active, the others as inactive; ? = inconclusive; nt = no result given; & = joins results of further samples; [ ] = dose if it differs, or a comment. Only part of the results is shown. The share of hits here may be higher or lower than overall.

[1] O=C(NCc1ccco1)C(c1ccccc1)N(Cc1cccnc1)C(=O)Cn1nnc2ccccc21 (stereo not given)
[2] COc1cc(OC)c(OC)cc1C=NCC1(c2ccccc2)CCCC1
[3] O=C1NC(=S)NC1=Cc1ccc(O)cc1
[4] O=[N+]([O-])c1cc(CSC2=NCCN2)ccc1O
[5] COc1ccc(C(=O)NNC(=O)c2ccc(S(=O)(=O)N3CCOCC3)cc2)cc1
[6] O=C(NCc1ccccc1Cl)C1CCN(c2ncnc3c2nc2n3CCCCC2)CC1
Assay by compound	1	2	3	4	5	6
GLA inh pH 4.5	10	-8	nt	-4	7	nt
Rango dissoc inh	-17%	4%	-13%	-15%	-7%	0%
Rango-impB inh	-4.2%	-0.9%	?	2.7%	0.4%	0.5%
miR-21 FLuc	-3%	5%	nt	-2%	-2%	-1%&4%

[7] Cc1nc2nc(SCC(=O)O)nn2c(C)c1Cc1ccccc1Cl
[8] Cc1ccc(NC(=O)CCC(=O)NNC(=O)C(c2ccccc2)c2ccccc2)c(C)c1
[9] Cc1noc(C)c1S(=O)(=O)Nc1ccccc1N1CCOCC1
[10] O=C(CNC(=O)c1ccccc1)OC(C(=O)c1ccccc1)c1ccccc1 (stereo not given)
[11] CC1CCN(C(=O)CN2C(=O)C(C)(C)Oc3ccc(C(=O)NC4CCCC4)cc32)CC1
[12] Cc1cccc(C(=O)N(CCc2ccccc2)Cc2ccccc2)c1[N+](=O)[O-]
Assay by compound	7	8	9	10	11	12
GLA inh pH 4.5	-13[21.1 µM]	5	4	14	3	nt
Rango dissoc inh	-7%	-5%	11%	0%	12%	-3%
Rango-impB inh	2.3%	1.3%	0.7%	0.1%	-2.3%	-1.0%
miR-21 FLuc	1%	-1%	-1%	-4%	0%	6%

[13] COc1ccc(Cc2nc3ccc(C(=O)NCCc4ccccn4)cc3o2)cc1OC
[14] COc1ccc(OC(C)C(=O)Nc2cccnc2)cc1 (stereo not given)
[15] CC1CN(C(=O)CCC(=O)NCc2ccccc2)c2ccccc2S1 (stereo not given)
[16] CC(C)=CC(=O)O[C@@H]1Cc2c(ccc3ccc(=O)oc23)OC1(C)C
[17] CC(C(=O)NCc1cccnc1)N1C(=O)c2ccccc2C1=O (stereo not given)
[18] COC(=O)C1=C(C)NC2=C(C(=O)CC(C)(C)C2)C1c1cccc(C)n1 (stereo not given)
Assay by compound	13	14	15	16	17	18
GLA inh pH 4.5	nt	-6	nt	nt	2	20
Rango dissoc inh	-11%	0%	9%	-6%	14%	?
Rango-impB inh	-3.9%	0.4%	-1.2%	-3.6%	-1.1%	?
miR-21 FLuc	-1%	3%	1%	nt	-16%	0%

[19] Cc1ccc(CCNc2ccc3ccccc3c2)cn1
[20] CCn1cc(CNC(=O)c2cc(Cl)ccc2OC)c(C)n1
[21] CC(C)CN(C(=O)c1ccc(S(=O)(=O)N2CCCCC2)cc1)C1CCS(=O)(=O)C1 (stereo not given)
[22] COCC(=O)N1CCC(Oc2ccc(C(=O)N(C)C3CCCCC3)cc2)CC1
[23] COc1cccc2c1OCC(CN1CCN(Cc3ccccc3)C(CCO)C1)=C2 (stereo not given)
[24] CSc1ccccc1NC(=O)Nc1ccc(F)c(Cl)c1
Assay by compound	19	20	21	22	23	24
GLA inh pH 4.5	nt	8	nt	nt	6	-2
Rango dissoc inh	-2%	0%	1%	-7%	1%	-16%
Rango-impB inh	4.7%	-0.6%	-0.1%	0.7%	0.0%	3.0%
miR-21 FLuc	nt	-13%	nt	-1%	0%	-8%

[25] COC(=O)c1cccc(NC(=O)CCCOc2cccc(C)c2)c1
[26] C=CCn1c(SCC(=O)Nc2cccc(C(=O)OC)c2)nnc1C(C)NC(=O)c1cccs1 (stereo not given)
[27] Cc1ccc(C(=O)Nc2cc([N+](=O)[O-])ccc2C)cc1
[28] CCc1ccc(N2CC(C(=O)Nc3cccc(S(=O)(=O)N4CCCC4)c3)CC2=O)cc1 (stereo not given)
[29] CN1NC(=O)CC1c1ccccc1 (stereo not given)
[30] CCC1C(=O)N(C)CCc2ccccc21 (stereo not given)
Assay by compound	25	26	27	28	29	30
GLA inh pH 4.5	0	-8	-5	nt	nt	-7
Rango dissoc inh	1%	0%	4%	1%	-13%	-7%
Rango-impB inh	2.2%	-7.7%	-2.8%	4.2%	-1.0%	-0.1%
miR-21 FLuc	2%	-7%	-8%	nt	nt	-24%

[31] C=CCN1C=C2C(=O)C(C)(OC(=O)c3ccc(OC)cc3)C(=O)C(c3ccco3)=C2C=C1CCCC (stereo not given)
[32] Cc1nnc(NC(=O)CSc2ncc(-c3ccccc3)[nH]2)s1
[33] CCCc1nc2oc(C(=O)OCC)c(N)c2c2c1COC(C)(C)C2
[34] CN(C)CCCN(C(=O)c1cc(-c2cccs2)nc2ccccc12)c1nc2c(F)cccc2s1
[35] Cc1ccc(S(=O)(=O)N2CCC(C(=O)N3Cc4ccccc4C3)CC2)cc1
[36] COc1cccc(NC(=O)CN(C)C(=O)c2csc3c2CCCC3)c1
Assay by compound	31	32	33	34	35	36
GLA inh pH 4.5	1&1	6	7	nt	-4	nt
Rango dissoc inh	15%	8%	0%	15%	10%	-1%
Rango-impB inh	?	-1.8%	0.6%	-0.8%	-1.1%	3.0%
miR-21 FLuc	4%	-14%	-5%	-6%	0%	nt

Compound profiles (already shown).
C=CCN1C=C2C(=O)C(C)(OC(=O)c3ccc(OC)cc3)C(=O)C(c3ccco3)=C2C=C1CCCC (stereo not given) as listed: GLA inh pH 4.5 = 1&1; Rango dissoc inh = 15%; Rango-impB inh = ?; miR-21 FLuc = 4%
CCCc1nc2oc(C(=O)OCC)c(N)c2c2c1COC(C)(C)C2 as listed: GLA inh pH 4.5 = 7; Rango dissoc inh = 0%; Rango-impB inh = 0.6%; miR-21 FLuc = -5%
CN(C)CCCN(C(=O)c1cc(-c2cccs2)nc2ccccc12)c1nc2c(F)cccc2s1 as listed: GLA inh pH 4.5 = nt; Rango dissoc inh = 15%; Rango-impB inh = -0.8%; miR-21 FLuc = -6%

Further structures:
[37] CCc1ccc(C(=O)COC(=O)c2n[nH]c3ccccc23)cc1
[38] O=C(CSc1nnc(-c2ccc(O)cc2)o1)Nc1ccccc1Br
[39] CCN(C(=O)COc1ncnc2scc(-c3ccc(F)cc3)c12)C1CCS(=O)(=O)C1 (stereo not given)
[40] O=C(Nc1ccccc1C(=O)N1CCCCC1)c1ccccc1C(F)(F)F
[41] CC(Cc1cccs1)NC(=O)NC1CCCCC1 (stereo not given)
[42] CC(C)(Cc1nc2ccccc2[nH]1)C(=O)O
Assay by compound	37	38	39	40	41	42
GLA inh pH 4.5	1	nt	-4	nt	3	7
Rango dissoc inh	7%	14%	0%	9%	-2%	-11%
Rango-impB inh	-2.7%	1.1%	2.0%	-0.7%	0.6%	17%
miR-21 FLuc	-49%	-59%	-23%	0%	-42%	0%

[43] O=C(NCC(=O)N1CCN(c2ccccc2F)CC1)c1cccs1
[44] CN(C(=O)c1cccc(NC(=O)Cc2cccc(NC(=O)C3CCCN(C(=O)c4ccccc4)C3)c2)c1)C1CC1 (stereo not given)
[45] CCN(C(=O)Cn1cc(C(=O)C(=O)N2CCOCC2)c2ccccc21)c1ccccc1
[46] CC(/C=C/c1ccccc1)=N/NC(=O)C(O)c1ccccc1 (stereo not given)
[47] CC(=O)c1ccc(N2CCN(CC(=O)NC(=O)NCc3ccccc3)CC2)cc1
[48] CC(=O)c1cccc(OCC(O)CN2CCN(S(=O)(=O)c3c(F)cccc3F)CC2)c1 (stereo not given)
Assay by compound	43	44	45	46	47	48
GLA inh pH 4.5	nt	nt	nt	-1	nt	nt
Rango dissoc inh	-13%	-7%	-13%	-1%	8%	-14%
Rango-impB inh	0.7%	0.3%	0.3%	1.2%	-2.2%	0.4%
miR-21 FLuc	-37%	nt	-9%	-32%	nt	0%

Some entries already given, reduced to Rango dissoc inh and GLA inh pH 4.5:
No. | SMILES | Rango dissoc inh | GLA inh pH 4.5
48 | CC(=O)c1cccc(OCC(O)CN2CCN(S(=O)(=O)c3c(F)cccc3F)CC2)c1 (stereo not given) | -14% | nt
46 | CC(/C=C/c1ccccc1)=N/NC(=O)C(O)c1ccccc1 (stereo not given) | -1% | -1

Other entries
[49] CCc1ncc(C(=O)c2ccc(OC)cc2)n1C
[50] CN1C(=O)CSC1=Nc1cccc(Cl)c1
[51] O=C(Nc1ccc2c(c1)CN(Cc1ccco1)CC2)C1CCCO1 (stereo not given)
[52] Cc1cc(C(=O)COc2ccc3ccc(=O)oc3c2)c(C)n1C
[53] CC(Sc1ncc(C(F)(F)F)cc1Cl)C(=O)NCC1CCCO1 (stereo not given)
[54] CC(NC(=O)CC1Sc2ccccc2NC1=O)c1ccccc1 (stereo not given)
Assay by compound	49	50	51	52	53	54
GLA inh pH 4.5	0	nt	nt	2	-4	-3
Rango dissoc inh	16%	-24%	-7%	4%	6%	-4%
Rango-impB inh	1.5%	1.7%	-2.2%	-0.1%	-0.4%	0.5%
miR-21 FLuc	-24%	0%	-3%	6%	-3%	-7%

[55] COC(=O)c1nnn(-c2ccc(F)c(Cl)c2)c1C(=O)OC
[56] Nc1ncnc(NC2CCS(=O)(=O)C2)c1[N+](=O)[O-] (stereo not given)
[57] COCCNCCOc1ccccc1-c1ccccc1
[58] COC(=O)CN(c1ccccc1)S(=O)(=O)c1ccccc1
[59] CCN1C(=NCCc2ccc([N+](=O)[O-])cc2)N[C@@H](c2ccccc2)[C@H](C(=O)OC)[C@H]1C
[60] COc1ccc(NC(=S)Nc2ccccn2)cc1
Assay by compound	55	56	57	58	59	60
GLA inh pH 4.5	-5	-7	-1	2	nt	0
Rango dissoc inh	8%	3%	-7%	-10%	12%	6%
Rango-impB inh	4.4%	-3.8%	2.9%	1.8%	?	3.3%
miR-21 FLuc	-3%	-4%	-4%	-1%	-2%	-62%

[61] Cc1cc(C)n(-c2ncccc2[N+](=O)[O-])n1
[62] COC(=O)c1cc(Br)ccc1N(Cc1cc(OC)cc(OC)c1)S(C)(=O)=O
[63] O=C1OCC/C1=C\OCCCO/C=C1\CCOC1=O
[64] NC(=O)/C(=N\O)c1ccccc1
[65] O=C(CNc1ccc2ccccc2c1)N/N=C/c1ccc(OC(=O)/C=C/c2ccco2)cc1
[66] Cc1onc(-c2ccccc2Cl)c1C(=O)N1C=CC(C(F)(F)F)=NCC1
Assay by compound	61	62	63	64	65	66
GLA inh pH 4.5	-6	nt	-3	-2	-7	-3
Rango dissoc inh	-4%	-12%	9%	18%	-12%	-11%
Rango-impB inh	4.5%	-0.7%	-0.2%	-5.3%	3.9%	0.3%
miR-21 FLuc	-1%	nt	3%	-1%	-17%	-6%

[67] Cc1ccccc1OCC(=O)NCCNC(=O)c1ccccn1
[68] Cc1nc2ccc(S(=O)(=O)NCC(=O)NCc3ccc(Cl)cc3)cc2s1
[69] O=C(c1ccco1)N1CCN(c2ncnc3c2cnn3-c2ccccc2)CC1
[70] CC(=O)c1cccc(NS(=O)(=O)c2cc3c(cc2C)NC(=O)CO3)c1
[71] CCOC(=O)C1CCN(Cc2cc(C(C)C)c(O)c(C(C)C)c2)CC1
[72] COC(=O)c1[nH]c2cccc(OC)c2c1NC(=O)CCN1CCC(C)CC1
[73] COc1cccc(CNc2ccc3c(c2)ncn3C)c1OC
Assay by compound	67	68	69	70	71	72	73
GLA inh pH 4.5	nt	nt	7	nt	0	4	nt
Rango dissoc inh	-24%	-10%	8%	10%	-4%	-2%	9%
Rango-impB inh	-1.3%	1.2%	-13%	-3.4%	0.0%	-4.0%	0.0%
miR-21 FLuc	-5%	-2%&0%	-25%	1%	19%	-3%	-34%&-34%
